HNF4A DNA FP: change in binding of human HNF4 alpha to DNA; P41235; HNF4a-FITC DNA binding, fluorescence polarization, 1 h; activity change, % at 10 µM; actives 0.3% (n = 360,000); in the data active = activity change above about 30%, passing the limit was not always enough;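 also: controls were the assay level and a saturating level of protein; the project sought stronger binding though the title names inhibitors; some compounds called inactive have numbers as strong as hits; positive values seem to mean higher polarization but the record does not say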
A1 inh: inhibitors of the anti-apoptotic protein A1, read as caspase activation; caspase activation, % (test concentration not listed); MEF A1-2A-BIM cells, Caspase-Glo 3/7 luminescence, 3 h; percent of clofoctol response, vehicle zero; actives 0.066% (n = 330,000);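 active = over half of replicate activation scores above 10%, or exactly half above 10 with the replicate mean above 10; inconclusive = replicate mean below 10 yet half the replicates above 10; inactive = over half of replicates below 10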;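 also: wells of about 30 µL received 50 nL stock; many hits fall short of the cut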
LANA-H2A inh: blocks KSHV LANA binding to histone H2A/H2B | Q9QR71 | cell-free LANA-H2A/H2B peptide, fluorescence polarization | inhibition, % (no concentration beside the values) | actives 0.6% (n = 320,000); in the data active = inhibition mostly above about 10%, no sharp cut-off; inactive = mostly below about 6.7%;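 also: stock transfer was 7.5 nL into about 10 µL; 0% = median of vehicle wells and 100% = median of positive control wells; one replicate is shown; the record names a cut of 25% in any replicate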
Beta2AR agonist: human beta-2 adrenergic receptor agonism by FAP. P07550. actives 0.43% (n = 340,000). response, % (test concentration not listed). Am2.2-beta2AR cells, FAP receptor internalization, flow cytometry; reference of the scale not given here;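 active = response above a set limit, near 3 SD of response in nonfluorescent compounds, cut at about 42% in these data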;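 also: stock transfer was 100 nL into about 11 µL; a reference agonist was the positive control; negative values mostly stem from fluorescent compounds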
Target sequence (P07550 whole entry, looked up): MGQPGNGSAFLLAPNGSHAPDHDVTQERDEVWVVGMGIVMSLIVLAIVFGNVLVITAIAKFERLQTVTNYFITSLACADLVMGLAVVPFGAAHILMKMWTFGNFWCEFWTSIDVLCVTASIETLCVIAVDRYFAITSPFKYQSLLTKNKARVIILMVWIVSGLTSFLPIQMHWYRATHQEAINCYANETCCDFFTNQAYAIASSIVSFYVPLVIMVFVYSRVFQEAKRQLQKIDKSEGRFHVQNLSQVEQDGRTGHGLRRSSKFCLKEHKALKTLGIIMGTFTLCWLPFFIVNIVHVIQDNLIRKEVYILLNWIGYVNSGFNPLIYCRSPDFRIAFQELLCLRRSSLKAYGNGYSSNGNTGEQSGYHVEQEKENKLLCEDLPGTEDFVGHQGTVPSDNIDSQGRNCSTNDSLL
UCH37 DUB inh: inhibitors of human deubiquitinating enzyme UCH37. purified proteasome/UCH37, Ub-AMC cleavage fluorescence. inhibition, % (concentration not given with the values). actives 0.33% (n = 330,000);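 active = mean of two replicates above 20%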;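 also: 0% = compound-free wells with enzyme and 100% = wells lacking proteasome; stock transfer was 100 nL into about 20 µL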
Target sequence (Q9Y5K5 whole entry, looked up): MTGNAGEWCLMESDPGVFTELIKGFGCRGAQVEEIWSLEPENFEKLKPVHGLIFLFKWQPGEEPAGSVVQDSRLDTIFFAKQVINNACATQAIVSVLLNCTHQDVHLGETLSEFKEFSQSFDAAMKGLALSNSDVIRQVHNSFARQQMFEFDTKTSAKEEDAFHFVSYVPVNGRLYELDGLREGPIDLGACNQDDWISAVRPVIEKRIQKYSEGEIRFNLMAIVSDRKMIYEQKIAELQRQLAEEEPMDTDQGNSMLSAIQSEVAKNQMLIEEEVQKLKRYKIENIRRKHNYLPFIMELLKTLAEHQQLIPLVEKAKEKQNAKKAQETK
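Signal – fluorescence, ex 355 nm, em 460 nm · System – Proteasome-bound UCH37 · Input – 0.15 nM proteasome as dispensed · Timing – 30 min preincubation with enzyme, 25 min cleavage at room temperature · Read-out basis – percent inhibition of cleavage signal versus uninhibited and no-proteasome wells · Medium – Tris-HCl pH 7.4 with ATP-MgCl2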
Vif TR-FRET: HIV-1 Vif–A3G interaction blockers – biochemical, TR-FRET, GST-Vif 1-94, biotin-A3G peptide, dose response retest, primary screen (AID 1117319) | TR-FRET GST-Vif / biotin-A3G peptide binding; higher % means a stronger effect; test concentration not given here; strong numbers were not always called active | actives 0.57% (n = 260,000) | inhibition, %; hits with a dose series show IC50 in µM;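 active = above the screen mean plus three standard deviations and confirmed in dose response; inconclusive = results disagree or hit not tested in dose response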;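 also: Vif residues 1-94 fused to GST binding biotinylated APOBEC3G peptide 110-148; 0% = full assay without inhibitor and 100% = GST in place of GST-Vif; retest series ran down from 100 µM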
E coli growth: blocks Escherichia coli growth | AID 1053175 | OD600, 23 h; stronger effect = lower value | OD600 absorbance (concentration not given with the values) | actives 0.21% (n = 330,000);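 active = OD600 absorbance below the run mean of sample wells minus 3.6 SD, in any replicate, cut at about 0.56 in these data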;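 also: stock transfer was 300 nL into about 60 µL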
Numbers without * were called inactive; i = inactive; ? = inconclusive; . = no result given; + = active, no number.

Each structure is followed by: Beta2AR agonist	LANA-H2A inh	Vif TR-FRET	E coli growth	UCH37 DUB inh	HNF4A DNA FP	A1 inh
- C=C(C)CSc1nnc([C@@H]2CCCN2C(=O)OC(C)(C)C)o1
  6.1	5.7	15.1%	0.719	1.1	0.7	-0.3
- Cc1cc(NC(=O)c2ccccc2Oc2ccccc2)no1
  -17.2	-0.6	-0.6%	0.696	1.6	0.8	-0.9
- Cc1ccccc1SCC(=O)Nc1cc(S(=O)(=O)N2CCOCC2)ccc1N1CCOCC1
  4.4	-3.0	.	0.744	3.6	-0.7	-1.0
- CC(C)C(=O)Nc1nnc(NC(=S)Nc2ccccc2)s1
  -2.0	1.8	6.4%	0.719	8.7	1.2	0.0
- c1ccc(-c2noc(CN3CCN(C(c4ccccc4)c4ccccc4)CC3)n2)cc1
  16.1	1.3	3.4%	0.72	2.9	-4.7	0.5
- CC(=O)c1ccc(NC(=O)C(C)N2CCN(C/C=C/c3ccccc3)CC2)cc1 (stereo unspecified)
  -10.6	-7.3	2.8%	0.71	2.2	2.2	1.6
- O=C1CC(=O)Nc2cc(S(=O)(=O)N3CCOc4ccc(Cl)cc43)ccc2N1
  -2.2	31.4*	-8.6%	0.76	8.6	6.0	-0.8
- Cc1cccc(C(=O)NNc2ncnc3c2cnn3C)c1
  -0.1	-4.2	1.2%	0.707	4.3	-1.2	-0.1
- O=C1CCCN1CCNC(=S)Nc1ccccc1
  -7.8	3.4	8.5%	0.651	2.4	2.7	-0.3
- O=c1oc(-c2ccccc2)cc(Cl)c1Cl
  50.9*	-2.0	-2.0%	0.673	7.3	3.6	0.1
- O=C(N/N=C/c1ccco1)c1cnccn1
  -4.4	-4.0	7.7%	.	.	-1.8	-0.3
- Cc1ccc(C(=O)N(CN2CCCC2=O)c2ccccc2)cc1C
  -2.0	-0.4	8.0%	0.683	3.1	3.8	0.6
- O=S(=O)(c1ccccc1)N1CCN(c2ncccn2)CC1
  1.2	1.2	9.8%	0.667	5.5	0.9	1.3
- CCOC(=O)c1ccc(NS(=O)(=O)c2cc(C)ccc2OC)cc1
  -1.0	1.0	-0.6%	0.702	2.4	2.2	-0.6
- O=C(/C=C/c1cccc2ccccc12)NCCC1=CCCCC1
  -4.6	-1.1	5.0%	0.741	-3.7	0.8	1.1
- C=CCn1c2ccccc2c2nnc(SCC(=O)Nc3c(C)n(C)n(-c4ccccc4)c3=O)nc21
  -16.0	.	1.0%	0.769	-2.9	-2.0	.
- CCCCNC(=O)/C(C#N)=C/c1ccc(F)cc1F
  4.7	-1.7	-4.4%	0.64	0.8	1.6	-0.2
- CN(CC(=O)Nc1ccccc1)CC(=O)Nc1ccccc1Cl
  -9.7	-1.7	-6.0%	0.66	4.2	0.9	0.1
- CCOc1cc(NC(=S)NCc2ccco2)c(OCC)cc1NC(C)=O
  6.9	-2.2	21.8%	0.697	5.9	0.8	0.8
- CCOC(=O)C1(Cc2cccc(OC)c2)CCCN(C(=O)CSC)C1 (stereo unspecified)
  5.1	-2.0	-1.2%	.	.	0.3	?
- O=C(N/N=C/c1cccs1)C1COc2ccccc2O1 (stereo unspecified)
  -0.8	-11.4	-1.6%	.	.	3.5	0.5
- CN(c1ccccc1)S(=O)(=O)c1cccc(C(=O)Nc2ccc(N3CCOCC3)cc2)c1
  5.5	.	2.4%	0.59	3.1	1.1	.
- O=C(Oc1ccc2ccc(=O)oc2c1)c1cccs1
  7.9	5.2	-12.7%	0.652	i	2.0	1.0
- COc1cc(OC)cc(-c2sc3ccc(OC)cc3c2-c2ccc(OCCN3CCCCC3)cc2)c1
  16.8	.	-36.3%	0.642	-8.5	-0.6	.
- O=C(OCC(=O)N1CCCC1)c1ccc(NS(=O)(=O)c2cccs2)cc1O
  6.8	2.7	.	0.677	-2.0	-0.5	-0.7
- O=C(COC(=O)C1CCC(N2C(=O)C3C4CCC(C4)C3C2=O)CC1)c1ccc(F)cc1 (stereo unspecified)
  2.6	1.9	6.3%	0.651	2.1	-1.9	1.4
- COc1ccc(CCNC(=O)C2CC3Cn4c(nc5cc6ccccc6cc54)C3N2C)cc1 (stereo unspecified)
  3.8	-3.0	.	0.698	-0.7	-2.8	1.1
- CN(C)/C=C(\C#N)C(=O)c1cccnc1Oc1ccc(F)cc1F
  4.4	-5.2	3.6%	0.733	2.0	1.4	-0.1
- O=C(O)/C=C\c1ccccc1Oc1cccc(Cl)c1
  -5.4	-2.3	-8.8%	0.682	0.0	-1.3	-0.9
- CCOC(=O)C1=C(c2ccccc2)N2CCS(=O)(=O)N=C2S1
  -4.0	4.7	0.6%	0.68	6.4	-3.8	-0.9

Later entries:
Each structure is followed by: Beta2AR agonist	LANA-H2A inh	Vif TR-FRET	E coli growth	UCH37 DUB inh	HNF4A DNA FP	A1 inh
- O=C(O)CCN1CCc2ccccc2C1c1ccncc1 (stereo unspecified)
  6.5	-1.2	.	0.713	-4.5	0.3	?
- CCOc1cc(C=O)cc(N=Nc2cccc([N+](=O)[O-])c2)c1O
  -1.4	-6.2	.	0.695	14.9	0.9	-9.0
- CC(C)COc1ccc2[nH]c3c(c2c1)CCCC3=O
  -2.5	-0.4	6.5%	0.704	4.8	2.3	0.1
- COP(=O)(OC)C(Nc1ccc(C)cc1)c1ccc([N+](=O)[O-])cc1 (stereo unspecified)
  -0.5	5.0	9.3%	0.641	-0.1	-2.5	-0.4
- O=[N+]([O-])/C(=C\Nc1ccccc1Cl)S(=O)(=O)c1ccccc1
  3.9	0.4	-0.5%	.	.	2.2	0.1
- CCCc1nnc(NS(=O)(=O)c2ccc(C)cc2)o1
  -4.2	.	-8.3%	0.637	0.3	-0.6	.
- O=C(O)c1ccc(Cl)c(N2C(=O)Nc3ccccc3N2O)c1
  0.6	2.2	4.1%	0.7	3.8	-5.2	0.7
- Cc1ccc2[nH]c(=O)c(CN3CCCCC3)c(-c3ccccc3)c2c1
  3.1	1.0	.	0.665	-27.1	-1.9	0.0
- Nc1nc(=S)[nH]c2c1C1(CCCCC1)Cc1ccccc1-2
  11.4	0.9	?	0.696	1.0	-2.8	0.4
- Cc1ccc2cc(CN(CC3CCCO3)C(=S)NCc3ccco3)c(=O)[nH]c2c1C (stereo unspecified)
  38.1	.	?	0.683	0.9	1.8	0.3
- COC(=O)c1sccc1NC(=S)N1CCN(c2cc(C)ccc2C)CC1
  -1.2	9.1	-5.6%	0.726	5.1	3.1	0.9
- N/C(=N\OC(=O)c1cccc(Br)c1)c1ccccn1
  -11.0	4.2	0.9%	0.722	3.2	0.7	0.2
- Cc1ccc(S(=O)(=O)NCC(=O)N(CCc2ccccc2)CC(=O)NCc2ccco2)cc1
  7.7	.	0.8%	0.691	5.4	1.0	.
- O=C1NC(=O)/C(=C/c2cc3c(cc2Br)OCO3)S1
  16.1	-1.2	.	0.57	2.3	-1.5	-0.1
- CCCCNc1c(-c2ccc(OC)c(SC3CCCCC3)c2)nc2cnccn12
  -11.2	-2.9	.	0.7	-103.8	12.2	-0.1
- CC(=O)Nc1ccc(NC(=O)CCCn2cnc3ccccc3c2=O)cc1
  -0.4	-7.3	-11.7%	0.665	6.5	0.0	?
- CCOC(=O)CSc1nc(NC#N)nc(N(CC)CC)n1
  4.6	-39.1	22.4%	0.703	4.1	0.1	0.0
- CC1CCN(C2CC(=O)N(c3ccc(Br)cc3Br)C2=O)CC1 (stereo unspecified)
  -0.9	1.2	31.3%	0.703	-2.5	3.5	-0.9
- Cc1ccc2c(c1)C1CN(C)CCC1N2C(=O)c1ccccc1NS(=O)(=O)c1cccc(C(F)(F)F)c1 (stereo unspecified)
  67.0*	0.4	3.0%	0.697	4.1	-1.8	0.0
- CN(C)c1ccc(/C=N/NC(=O)CCCO)cc1
  -5.2	9.0	15.2%	.	.	-2.0	0.3
- Fc1ccc(CSc2nnc3ccc(-c4ccncc4)nn23)cc1
  -10.6	-3.7	-8.9%	0.726	2.2	4.2	-0.7
- CC1CN/C(=C\C(=O)c2ccc(Br)cc2)C(=O)N1 (stereo unspecified)
  -1.5	1.7	-4.2%	0.688	9.0	0.1	-3.1
- Cc1ccc(NC(=O)CN(C)S(=O)(=O)c2cccs2)cc1C
  -1.0	-3.9	-7.7%	0.682	1.0	-8.6	0.9
- CC1CCc2c(C(=O)NCCN3CCOCC3)csc2C1 (stereo unspecified)
  -17.8	-4.6	1.7%	0.666	1.8	-1.8	-0.2
- COc1ccc(-c2c(C(F)(F)F)oc3c(CN4CCN(C)CC4)c(O)ccc3c2=O)cc1
  -3.7	-3.6	2.0%	0.739	-1.2	-1.1	-0.1
- CCCn1c2ccccc2c2nnc(SCC(=O)OCC)nc21
  5.4	-2.6	8.9%	0.725	1.3	2.9	0.4
- CC(C)c1ccc(NC2CCCN(C(=O)CCN3CCCC3=O)C2)cc1 (stereo unspecified)
  6.6	-2.9	.	0.681	1.2	3.1	-0.6
- Oc1ccc(Nc2nc(-c3ccccc3F)nc3ccccc23)cc1
  -6.0	-1.6	-6.4%	0.665	-4.0	-0.2	-0.5
- COc1ccccc1N1CCN(c2cc(=O)n(-c3ccc(Br)cc3)c(=O)[nH]2)CC1
  6.2	0.5	28.3%	0.72	5.3	4.0	0.3
- O=C(Nc1c(C(=O)N2CCN(c3ccccn3)CC2)oc2ccccc12)c1ccc([N+](=O)[O-])cc1
  -9.7	-4.1	.	0.718	6.8	0.5	-0.3

Carrying on.
Each structure is followed by: Beta2AR agonist	LANA-H2A inh	Vif TR-FRET	E coli growth	UCH37 DUB inh	HNF4A DNA FP	A1 inh
- FC(F)(F)c1nc2nncn2c2c1CCCCC2
  -1.9	-2.1	2.2%	0.737	-111.7	-4.6	0.1
- CCOc1ccc(NC(=O)Nc2cccc(C(=O)O)c2)cc1
  -3.6	-0.9	1.5%	.	.	1.8	-9.1
- CCCC(=O)Nc1ccc(NC(=O)C23CC4CC(CC(C4)C2)C3)cn1
  .	2.0	8.4%	0.775	4.7	2.8	0.1
- COc1cc(OC)cc(C(=O)OCc2cc3ccccc3[nH]c2=O)c1
  -1.7	-2.3	-3.5%	0.727	4.3	-3.6	0.5
- COc1cc(CN2CC(=O)N(c3ccc(C)c(Cl)c3)C2=S)cc(OC)c1OC
  16.1	-10.7	2.8%	0.709	1.6	2.4	1.4
- O=C(CCSCc1ccc(Cl)cc1)NCc1cccnc1
  -1.3	+	25.5%	0.742	2.2	0.0	0.3

From PubChem BioAssay

Compounds were not picked by outcome; any-hit rate near 2.1%.
